Screening results as filed in PubChem.
BJeLR lethal: BJeLR cell viability loss; inhibition, % (test concentration not listed); AID 1554; 300,000 compounds, 0.17% hits; BJeLR (HRASV12) viability, CellTiter-Glo ATP luminescence, 48 h; reference of the scale not given here;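 active = replicate mean above 50%; inconclusive = above 50% but judged a plate artefact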;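 note: 50 nL library stock added to about 25 µL; numbers are from one replicate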
Sa ugtP lethal: kills S. aureus RN4220 lacking UgtP; S. aureus RN4220 ugtP deletion, OD600 growth, 16 h; some inactives read as strong as hits; growth inhibition, % (no concentration beside the values); 330,000 compounds, 0.54% hits;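 active = z-score under -3 and OD600 up to 0.15 on both plates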;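 note: plate controls were untreated wells for no effect and antibiotic for full effect; wells of about 80 µL received 100 nL stock; the first replicate is given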
Mtb hypoxia rep: Mtb hypoxia fluorescent reporter inhibition; M. tuberculosis hypoxia-regulated fluorescent reporter, fluorescence; fluorescence inhibition, % (concentration not given with the values); 300,000 compounds, 0.1% hits;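 active = 35 to 45% if threefold the growth effect, above 45% if 1.5-fold the growth effect; inactive = the rest, general growth blockers included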;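 note: wells of about 50 µL received 100 nL stock; 0% = vehicle wells and 100% = reference inhibitor wells; whole bacteria with a GFP reporter of the hypoxia response; strong numbers were not always called active; many hits fall short of the cut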
Bead autofluor: counter-screen for toxin protease inhibitors: compound fluorescence; AID 624483; fluorescence intensity (concentration not given with the values); 360,000 compounds, 3.1% hits; compound autofluorescence counterscreen, microsphere flow cytometry; stronger effect = higher value;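 active = at least 3 SD above the mean of all compounds, about 16000 in these data; inconclusive = too few beads counted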;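 note: 100 nL of 1 mM stock went into each well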
RN4220 kill: S. aureus RN4220 growth inhibition; OD600, 16 h; inhibition, % (no concentration beside the values); 330,000 compounds, 0.33% hits;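 active = z-score of -3 or lower and OD600 up to 0.18 on both plates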;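 note: plate controls were untreated cells for no effect and reference antibiotic for full effect; stock transfer was 100 nL into about 80 µL; one replicate is shown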
PrP UTR inh: inhibition of PrP 5' UTR reporter expression. cell-based PrP 5' UTR mRNA reporter, plate reader. inhibition, % (test concentration not listed). 340,000 compounds, 0.35% hits. AID 488862;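 active = every replicate at 50% or more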;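 note: 0 = median of the neutral control wells; tested in H4 reporter cells; numbers are from one replicate; inactives centre near -14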
Mtb hypoxia rep growth: recorded beside Mtb hypoxia rep, whose call it bears; growth inhibition, %; measured here: M. tuberculosis growth (absorbance);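 0% = vehicle and 100% = reference antibiotic; read after six days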
Starred values were filed as active, the others as inactive; ? = inconclusive; nt = not tested or not shown; & = joins results of further samples.

SMILES	BJeLR lethal	Sa ugtP lethal	Mtb hypoxia rep	Mtb hypoxia rep growth	Bead autofluor	RN4220 kill	PrP UTR inh
Cc1ccc(S(=O)(=O)N2CCCCC2)cc1NC(=O)C1=NN(c2ccccc2)C(=O)CC1	nt	9	3	-6	6465	3.4	-9
Cc1ccc2nc(C)cc(NN=Cc3ccc(F)cc3)c2c1	nt	-2	5	3	nt	2.6	nt
COc1ccc(C(=O)Nc2nc(N)n(-c3ccccc3)n2)cc1OC	3	0	nt	nt	4050	1.3	-20
CCCN1CCc2c(sc3nc(SC)n(-c4ccccc4)c(=O)c23)C1	-12	18	-9	-2	5541	1.2	-10
O=C(Cc1cc(=O)[nH]c(=O)[nH]1)NCCN1CCOCC1	2	3	9	0	5371	-0.7	-8
Cc1ccc(OC(=O)C(C)c2cccc(C(=O)c3ccccc3)c2)cc1 (stereo not drawn)	-12	29	6	5	10434	8.5	-3
CC(C)CN(C(=O)c1cccs1)C1CCS(=O)(=O)C1 (stereo not drawn)	5	11	8	6	5533	5.1	-14
COc1ccccc1N1CCN(S(=O)(=O)c2cc(-c3cc(C)no3)ccc2C(C)C)CC1	-4	23	-3	1	5715	-2.1	-16
O=C(O)C(c1ccccc1)C1(O)CCCCC1 (stereo not drawn)	6	3	8	3	3815	2.1	-16
CCCN1CCN(C(=O)Nc2ccc(OCC)cc2)CC1	-4	-10	2	-1	2235	-1.4	-77
Cc1ccc2oc(=O)n(CC(=O)c3ccc(F)cc3)c2c1	2	5	-1	-16	nt	-1.2	-10
CC(C)CN(C(=O)Cn1ccccc1=O)C1CCS(=O)(=O)C1 (stereo not drawn)	nt	4	8	4	3641	2.8	-10
COC(=O)c1cc(S(=O)(=O)N2CCC(C(N)=O)CC2)oc1C	-6	-2	-3	10	4609	3.4	0
CCOc1cc2[nH]c(=S)n(CCCCC(=O)NCc3ccco3)c(=O)c2cc1OCC	0	0	9	1	7805	8.1	-18
CCCc1c(C(=O)N/N=C/c2ccccc2OCc2ccc(F)cc2)nnn1-c1nonc1N	1	nt	nt	nt	5530	nt	-6
O=C(Nc1ccccc1N1CCN(c2ccccc2)CC1)C1CCCCC1	-3	1	6	6	6136	2.4	-23
O=C(c1cc(-c2ccco2)on1)N1CCCc2ccccc21	-9	11	8	2	15991	7.1	-15
Cc1noc(C)c1COC(=O)/C=C/c1ccccc1Cl	3	0	-2	7	4524	7.5	-17
O=C1NC(=O)N(c2cccc(Cl)c2)C(=O)/C1=C\c1ccc(Sc2nc3ccccc3[nH]2)o1	-4	-9	2	-4	2844	3.5	-18
CNc1ccccc1C(=O)OC(C)C(=O)Nc1ccc(S(=O)(=O)N2CCCC2)cc1 (stereo not drawn)	2	-1	6	-1	6501	-0.5	-17
CC(=O)Nc1c(O)nc(SCC(=O)Nc2c(C)cccc2C)[nH]c1=O	-7	-1	3	16	10642	4.4	-10
CC(C)=CCC/C(C)=C/CNC(=O)C[C@H]1C[C@H](C(=O)N2CCCCC2)[C@@]2(C)c3[nH]c4ccc(Cl)cc4c3CCN2C1=O	nt	-6	-10	0	3537	-3.3	2
COC(=O)c1sc(NC(=O)c2ccc(C)o2)nc1C	9	2	11	7	2009	5.0	-81
CCCCCCCCNC(=O)c1cnsn1	7	7	nt	nt	2068	1.8	-17
c1ccc(-c2ccc(C3CCCN3)cc2)cc1 (stereo not drawn)	12	10	10	6	3160	4.0	-13

Seven of these compounds in a different format.
mol | BJeLR lethal | Sa ugtP lethal | Mtb hypoxia rep | Mtb hypoxia rep growth | Bead autofluor | RN4220 kill | PrP UTR inh
CCCN1CCc2c(sc3nc(SC)n(-c4ccccc4)c(=O)c23)C1 | -12 | 18 | -9 | -2 | 5541 | 1.2 | -10
O=C(Cc1cc(=O)[nH]c(=O)[nH]1)NCCN1CCOCC1 | 2 | 3 | 9 | 0 | 5371 | -0.7 | -8
Cc1ccc(OC(=O)C(C)c2cccc(C(=O)c3ccccc3)c2)cc1 (stereo not drawn) | -12 | 29 | 6 | 5 | 10434 | 8.5 | -3
CC(C)CN(C(=O)c1cccs1)C1CCS(=O)(=O)C1 (stereo not drawn) | 5 | 11 | 8 | 6 | 5533 | 5.1 | -14
COc1ccccc1N1CCN(S(=O)(=O)c2cc(-c3cc(C)no3)ccc2C(C)C)CC1 | -4 | 23 | -3 | 1 | 5715 | -2.1 | -16
O=C(O)C(c1ccccc1)C1(O)CCCCC1 (stereo not drawn) | 6 | 3 | 8 | 3 | 3815 | 2.1 | -16
CCCN1CCN(C(=O)Nc2ccc(OCC)cc2)CC1 | -4 | -10 | 2 | -1 | 2235 | -1.4 | -77

Next part
SMILES	BJeLR lethal	Sa ugtP lethal	Mtb hypoxia rep	Mtb hypoxia rep growth	Bead autofluor	RN4220 kill	PrP UTR inh
CS(=O)(=O)Nc1nc2n(n1)C(c1ccc(F)cc1)CC(c1ccccc1)N2 (stereo not drawn)	1	-6	4	-1	3355	2.0	-19
COc1ccc(CNC(=O)CN(Cc2ccc(OC)cc2)C(=O)c2csnn2)cc1	-1	3	-8	-5	4500	1.7	-18
Cc1ccc(C)c(N2CCN(C(=O)Cn3cccc3)CC2)c1	-12	-7	6	15	11749	-1.8	-69
CC1(C)C2CCC1(CS(=O)(=O)N1CCOCC1)C(=O)C2 (stereo not drawn)	1	-1	-1	7	11046	4.1	-6
O=C(COC(=O)c1ccc(S(=O)(=O)N2CCCCC2)cc1)NCc1ccccc1	nt	9	4	1	3308	5.2	-15
Cc1ccccc1OCC(=O)N/N=C/c1ccc(Sc2nc3ccccc3s2)o1	-4	nt	nt	nt	8904	nt	-27
O=C1OCC/C1=C\c1ccc(O)cc1	6	4	7	6	3743	1.5	-9
O=C(c1ccc(Cn2cc(Br)cn2)cc1)N1N=C(C(F)F)CC1(O)C(F)F (stereo not drawn)	-7	-14	4	1	2508	2.5	-12
O=C(c1cc2nc(-c3ccccc3)cc(-c3ccccc3)n2n1)N1CCCC1	11	-8	4	4	5057	5.6	-3
CCOC(=O)c1ccc(N2CN(C3CCCCC3)CNC2=S)cc1	-12	nt	nt	nt	10127	nt	-21
CCOc1ncccc1C(=O)N=C1SCCN1C(=O)c1cccnc1OCC	3	6	12	11	3268	5.1	-18
Cn1ccc(NC(=O)Nc2cccc(C(F)(F)F)c2)n1	-10	1	5	2	3307	4.1	-11
CC1CN(C(c2cccs2)c2sc3ncnn3c2O)CC(C)O1 (stereo not drawn)	-16	1	5	1	5803	-4.8	-5
Cc1ccc(S(=O)(=O)C2(C(=O)N3CCN(c4ccccc4F)CC3)CC2)cc1	1	0	-3	10	3615	4.5	-14
N=C1S/C(=C\c2ccco2)C(=O)N1c1nccs1	10	63	-5	13	4218	61	-42
CSc1cccc(NC(=O)/C=C/c2ccccc2)c1	-6	-14	5	9	5926	1.4	-67
NS(=O)(=O)c1cccc(NC(=O)CSc2nc3ccccc3n2-c2ccccc2)c1	-6	3	0	11	4086	18	-13
COc1ccc(CC(=O)OCC(=O)Nc2cccnc2Cl)cc1OC	-10	4	0	5	4186	7.6	-9
CCc1ccc(NC(=O)C2=CC(c3ccc(OC)cc3)=NS(=O)(=O)N2C)cc1	11	4	0	12	5875	4.4	-3
CC(=O)Nc1ccc(OCC(=O)NCCc2ccccc2)cc1	8	3	8	-2	4457	6.7	-23
Cc1cc(C)c[n+](-c2nc3ccccc3nc2[N-]S(=O)(=O)c2cccs2)c1	-5	-4	2	9	2214	3.5	-19
CCC(Oc1ccc(C)cc1)C(=O)Nc1ccccc1C(=O)N1CCOCC1 (stereo not drawn)	-1	12	12	13	5452	-1.5	-14
O=C(COC(=O)/C=C/c1cccc(F)c1)Nc1ncccn1	5	5	-4	3	4998	2.8	-26
Cc1occc1C(=O)Nc1ccccc1C#N	2	15	10	2	4349	6.5	7
Clc1ccccc1CN1CCN(c2cccc3[nH]ccc23)CC1	-7	12	-8	0	nt	0.0	-25

(continued)
SMILES	BJeLR lethal	Sa ugtP lethal	Mtb hypoxia rep	Mtb hypoxia rep growth	Bead autofluor	RN4220 kill	PrP UTR inh
O=C(OCC(=O)N1CCN(S(=O)(=O)c2ccc(Cl)cc2)CC1)C1CC1	nt	3	1	12	3455	2.7	-13
CC(=O)Nc1cccc(N/C(N)=N/c2nc(C)cc(C)n2)c1	-3	-1	-13	-8	2078	-0.5	-10
Cn1cc(CCC(=O)N2CCCC(C(=O)c3cccc4ccccc34)C2)cn1 (stereo not drawn)	nt	4	13	6	4922	9.0	-13
C=CCn1c(SC(C)C(=O)Nc2ccc(F)c(F)c2F)nnc1C1CC1 (stereo not drawn)	-14	-2	9	-2	?	3.9	-32
CN(C)C(=O)N1CCN(S(=O)(=O)c2ccc3ccccc3c2)CC1	-6	11	3	-5	2816	1.7	-5
O=C(NC(Cc1ccccc1)C(=O)O)c1cccnc1Cl (stereo not drawn)	3	3	14	-1	3734	2.9	-17
COc1nc(-c2ccccc2)ncc1S(=O)(=O)c1ccccc1	0	12	19	15	3388	9.3	-21
CCCn1nc(C(=O)NNC(=O)Cc2ccc(S(=O)(=O)N3CCOCC3)s2)c2ccccc2c1=O	-12	8	-1	2	?	2.2	-5
COc1cc(C(=O)Nc2ccc(S(=O)(=O)N3CCCCC3C)cc2)cc(OC)c1OC (stereo not drawn)	-12	-14	2	12	10266	8.9	-16
Cc1nnc(SCC(=O)Nc2ccc3c(c2)COC3=O)n1-c1ccccc1	-7	-7	nt	nt	6175	1.5	-13
O=C1CCCN1CC(O)CS(=O)(=O)Cc1ccc(Cl)cc1Cl (stereo not drawn)	9	7	14	4	3693	6.3	-4
Cc1ccc(C(=O)NCCc2nnc3ccc(NCc4ccc5c(c4)OCO5)nn23)cc1	15	4	4	8	5114	-0.8	0
CCCN1CCC(N(C)CCc2ccc(OC)c(OC)c2)CC1	3	19	4	0	12384	4.5	-28
CCC(C)[C@H](NC(=O)N1CCn2c1nc1ccccc12)C(=O)NCCc1ccccc1 (stereo partly drawn)	1	-8	3	7	5643	1.6	-21
Cc1ccc(C)c(NC(=O)CN(C)C(=O)CN2C(=O)NC3(CCc4ccccc43)C2=O)c1 (stereo not drawn)	nt	6	-3	2	8885	5.2	-18
CCOc1ccc(NC(=O)C2CCN(c3nnnn3-c3ccccc3)CC2)cc1	-10	5	8	9	3300	3.8	-15
Cc1ccc(SC[C@H](CC(C)C)N2CCN(C)CCC2=O)cc1	4	nt	nt	nt	3218	nt	-24
CCSC1=C(C#N)C(c2cccc(O)c2)CC(=O)N1 (stereo not drawn)	3	8	1	10	6165	5.2	-11
C=CCn1c(O)c(/C=N/N2CCCCC2c2cccnc2)c(=O)[nH]c1=S (stereo not drawn)	-2	6	9	6	2253	4.4	-18
COc1cc(C(=O)NCC(=O)OCCN2C(=O)c3ccccc3C2=O)cc(OC)c1OC	0	4	3	3	4431	1.6	-21
CCC(C)Nc1nc2c(c(=O)n(C)c(=O)n2C)n1Cc1ccc(F)cc1 (stereo not drawn)	5	-5	-1	8	9227	1.3	-18
COC(=O)C1CCN(S(=O)(=O)CCNC(=O)c2ccc3c(c2)OCO3)CC1	-5	9	1	3	nt	2.2	-24
CC(C)(C)n1c(O)c2ccc(C(=O)N=NC(=O)c3ccccc3)cc2c1O	2	-11	-7	11	6666	-2.8	8
O=C(Nc1cc(C(=O)N2CCCC2)ccc1N1CCCC1)c1ccccc1	-13	-6	-10	6	4289	-2.1	-15
Cc1cc(C)c2c(N)c3ccccc3nc2n1	-11	0	2	9	5849	1.4	-17

Further results follow:
SMILES	BJeLR lethal	Sa ugtP lethal	Mtb hypoxia rep	Mtb hypoxia rep growth	Bead autofluor	RN4220 kill	PrP UTR inh
CC(=O)c1ccc(S(=O)(=O)Nc2ccc(-c3ccc4nnc(C)n4n3)cc2)cc1	1	-3	-3	-3	2653	2.1	-7
Clc1ccc(-c2cnc3n2CCC3)cc1	0	-15	-10	-10	21764*	-2.9	-6
Cc1ccc(C)c(NC(=S)NC23CN4CN(CN(C4)C2)C3)c1	5	3	18	1	4397	3.0	-28
COC(=O)C(C(=O)OC)c1ncc(C(F)(F)F)cc1Cl	2	-7	-1	5	4305	3.2	-17
COC(=O)C(C)Oc1ccc(-c2nccc(-c3ccc(F)cc3)n2)cc1 (stereo not drawn)	-4	16	5	9	3907	4.1	-11
COc1cc(C(=O)N/C(=C\c2cn(C)c3ccccc23)C(=O)NCCCO)cc(OC)c1OC	nt	12	1	1	3383	3.5	-10&-11
O=C(O)COCCN1CCN(C(c2ccccc2)c2ccc(Cl)cc2)CC1 (stereo not drawn)	-1	7&8	2&-5	11&-8	2459	0.7&5.4	-8
COc1ccc(S(=O)(=O)N(C)c2ccc(C(=O)NCc3ccncc3)cc2)cc1	-2	10	9	3	4251	4.7	12
